VACV mCherry inh: qHTS for Stage-Specific Inhibitors of Vaccinia Orthopoxvirus: mCherry Reporter Primary qHTS. hit rate 0.63% among 310,000. Potency, µM (top dose mostly 36.5 µM), for inactives: at the top dose activity change, negative = inhibition, most hits filed as inhibitors. Vaccinia virus mCherry reporter infection, fluorescence; about a quarter of the inactives have no number; active = well fitted inhibition curve with a large enough effect; inconclusive = small, poorly fitted or top-dose-only effect; inactive = no such curve, though single readings can be large or run the other way; tested in A549 cells; note: nearly all actives have a fitted effect of over 35% in size; inactives centre near -10
VACV Venus inh: qHTS for Stage-Specific Inhibitors of Vaccinia Orthopoxvirus: Venus Reporter Primary qHTS. hit rate 0.46% among 330,000. AID 720580, 2013. Vaccinia virus Venus reporter expression, fluorescence. Potency, µM (highest dose often 36.5 µM), for the others: at the highest dose activity change, negative = inhibition, hits mostly inhibitors; active means well fitted inhibition curve with a large enough effect; inconclusive means small, poorly fitted or top-dose-only effect; inactive means no such curve, though single readings can be large or run the other way; tested in A549 cells; note: nearly all actives have a fitted effect of over 30% in size; inactives centre near -10
Numbers without * were called inactive; i = inactive; ? = inconclusive; / = not tested or not shown; & = joins results of further samples; [ ] = remark or other dose. % is set by controls: 0 for no effect and ±100 for the full control effect; potency is the fitted concentration of half-maximal effect.

No. | structure | VACV Venus inh | VACV mCherry inh
1 | Cc1ccsc1/C=N/NC(=O)c1c[nH]c2ccccc12 | -27% | ?
2 | CCOC(=O)C1=CCC2C(=O)N(C)C(=O)C12 (stereo not given) | -5% | 8%
3 | Cc1ccc(NC(=O)NCCN2CCCCC2)cc1 | -8% | -1%
4 | CCN(C(=O)CCS(=O)(=O)c1cc2c(cc1C)NC(=O)CO2)c1cccc(C)c1 | 5% | 6%
5 | CC(C)(C)c1cc[n+](-c2[nH]c(=O)sc2/C=N/NC([S-])=Nc2ccccc2)cc1 | 15% | -5%
6 | Cc1cccc(C(=O)NCC(=O)OCC(=O)N2CC3(C)CC2CC(C)(C)C3)c1 (stereo not given) | -4% | -12%
7 | COc1ccc(CN2CC(C(=O)NCCN3CCN(c4ccccc4F)CC3)CC2=O)cc1 (stereo not given) | -5% | /
8 | COc1ccc(OC)c(C2CC(c3c(-c4ccccc4)c4cc(Cl)ccc4[nH]c3=O)=NN2S(C)(=O)=O)c1 (stereo not given) | -28% | /
9 | CC(Sc1nnc(-c2ccc(Cl)cc2)n1N)C(=O)NCC1CCCO1 (stereo not given) | -21% | i
10 | CC(C)(C)OC(=O)N1CCN(C(=O)[C@H](Cc2ccc(O)cc2)n2cc(CCO)nn2)CC1 | -2% | i
11 | CC12CN3CC(C)(CN(C1)C3c1cc3ccccc3[nH]1)C2=O (stereo not given) | 0% | /
12 | O=C(COC(=O)C1CCC1)NCc1ccccc1Cl | -2% | -9%
13 | COc1ccc(NC(=O)NC2CCCc3ccccc32)c(OC)c1 (stereo not given) | -17% | -12%
14 | CCN(Cc1ccccc1)C(=O)CCS(=O)(=O)c1ccc2c(c1)CCN2C(C)=O | -8% | -4%
15 | O=C(c1ccccc1[N+](=O)[O-])N1CCN(Cc2ccc3c(c2)OCO3)CC1 | 1% | -5%
16 | Cc1ccc(-c2cc3ccccc3nc2N2CCOCC2)cc1 | -6% | i
17 | O=C(COc1ccc(Cl)cc1Cl)Nc1ccc2nc3n(c(=O)c2c1)CCCC3 | ? | /
18 | COc1ccc(C(C)=O)cc1CS(=O)(=O)CC(=O)O | -7% | 12%
19 | O=C(c1ccc([N+](=O)[O-])cc1)N1C=CC(C(F)(F)F)=NCC1 | -15% | -4%
20 | O=C(Nc1ccc(Cl)c(-c2nc3ccccc3o2)c1)c1ccc(-c2cccc([N+](=O)[O-])c2)o1 | -3% | -3%
21 | O=S1(=O)CCOC[C@H](c2ccccc2)N1Cc1ccc(Cl)c(Cl)c1 | -20% | i
22 | N#C/C(=C\c1cccnc1)c1nc2c(s1)CCCC2 | 1% | -3%
23 | O=C1N(Cc2ccc(F)cc2)CCN1c1ccc(F)cc1 | -14% | -6%
24 | COC(=O)CN1C(=S)N(c2ccc(Cl)cc2)C(=O)C1CC(=O)Nc1ccccc1 (stereo not given) | -7% | i
25 | Cc1cc(C)cc(NC(=O)Cn2c(-c3ccccc3Cl)nc3ccccc32)c1 | -14% | i
26 | Cc1ccc(CSC2=CS(=O)(=O)c3ccccc3N2)cc1 | -14% | /
27 | CCOc1cc2c(cc1OCC)C(C(=O)O)C(c1cc(Br)c(O)c(OC)c1)N(C)C2=O (stereo not given) | -3% | -14%
28 | Cn1nc(N)c2c(-c3ccc(Cl)cc3)c(C#N)c(N)nc21 | ? | ?
29 | N#Cc1cccc(NC(=O)COC(=O)CCc2nc3ccccc3c(=O)[nH]2)c1 | -15% | i
30 | c1ccc(Nc2cccc3c(Nc4ccccc4)cccc23)cc1 | 5% | -15%
31 | O=C(c1ccc(Cl)cc1)c1c[nH]c(C(=O)C(Cl)(Cl)Cl)c1 | 1% | /
32 | O=C(O)C1C2c3ccccc3C(=O)C1(C(=O)O)c1ccccc12 (stereo not given) | -7% | i
33 | N#C/C(=C\c1ccc(OCc2ccccc2)cc1)C(N)=O | 7% | -8%
34 | Cc1ccc(-n2c([O-])nc(-[n+]3ccccc3)c2C=O)cc1 | -5% | i
35 | CCC1CCCN1Cn1cnc2c([nH]c3ccc(Cl)cc32)c1=O (stereo not given) | -15% | -19%
36 | CC1(c2ccc(OC(F)F)cc2)NC(=O)N(CC(=O)c2ccc3c(c2)OCO3)C1=O (stereo not given) | 2% | -17%
37 | C=CCC1CCCC(=O)N2CC[C@H](O)C12 (stereo not given in full) | -8% | i
38 | Cc1ccc(Cc2c(-c3cccc(Br)c3)nc3ccc(Br)cn23)cc1 | -13% | 2%
39 | CCN(CCn1cccn1)C(=O)c1cc(COc2c(F)cccc2F)on1 | 10% | i
40 | CCOC(=O)c1nc(-c2ccc(OC)c(OC)c2)cnc1C#N | 7% | -6%

Single records (already shown). Order of screens: VACV Venus inh | VACV mCherry inh
Entry for `Cc1ccc(Cc2c(-c3cccc(Br)c3)nc3ccc(Br)cn23)cc1` = -13% | 2%
Entry for `Cc1ccc(-n2c([O-])nc(-[n+]3ccccc3)c2C=O)cc1` = -5% | i
Entry for `CCOC(=O)c1nc(-c2ccc(OC)c(OC)c2)cnc1C#N` = 7% | -6%
Entry for `O=C(c1ccc(Cl)cc1)c1c[nH]c(C(=O)C(Cl)(Cl)Cl)c1` = 1% | /
Entry for `COC(=O)CN1C(=S)N(c2ccc(Cl)cc2)C(=O)C1CC(=O)Nc1ccccc1` (stereo not given) = -7% | i

Next section:
No. | structure | VACV Venus inh | VACV mCherry inh
41 | O=S(=O)(c1ccccc1)n1nc(-c2ccccc2)nc1NCc1ccc(Cl)cc1 | 8% | -13%
42 | CCC(C)NC(=O)Cn1cnc2sc(C)c(S(=O)(=O)N3CCN(c4ccccc4OC)CC3)c2c1=O (stereo not given) | -18%&-2% | -7%&-6%
43 | COc1cc(CN2CCN(Cc3ccc(C)cc3)C(CCO)C2)cc(OC)c1O (stereo not given) | -7% | -6%
44 | CCOC(=O)c1ccc(NC(=O)Cn2cc(C(=O)c3ccc(CC)cc3)c(=O)c3ccc(C)nc32)cc1 | -11% | -5%
45 | CCN(CC)CCCNC(=O)c1[nH]c2ccccc2c1Sc1ccc(Cl)cc1 | -12% | -21%
46 | O=S1(=O)N=C2CCCCCN2C(c2ccc(F)cc2)N1 (stereo not given) | 0% | i
47 | Cc1noc(C)c1C(=O)N1CCN(S(=O)(=O)c2cccc(Cl)c2Cl)CC1 | -15% | -2%
48 | COC(=O)c1ccc(C(=O)OC)c(NC(=S)N2CCCC(CO)C2)c1 (stereo not given) | -3% | i
49 | CC(Cc1ccc(O)c(O)c1)(NN)C(=O)O (stereo not given) | 8% | -11%
50 | Cc1ccc(-c2ccc(/C=N/c3ncn[nH]3)o2)cc1Cl | -14% | /
51 | Cc1ccc(CN2CCCn3nc(C(=O)NCCN(C)C)cc3C2=O)cc1 | -1% | -10%
52 | COc1ccc(CCNC(=O)CCc2c(C)nc3cc(-c4cccc(F)c4)nn3c2C)cc1OC | -15% | -13%
53 | Cc1ccc(N)c(C(O)(C(F)(F)F)C(F)(F)F)c1 | -1% | 5%
54 | CCOC(=O)c1nnn2c3ccccc3c(=O)n(C)c12 | -7% | -2%
55 | COC(=O)CCNS(=O)(=O)c1ccc2nsnc2c1 | -6% | i
56 | Cc1nc2ccccc2c2c1C(=O)N(C)C2=O | -11% | i
57 | O=C(CSc1nnc(-c2cccc(Br)c2)o1)NCC1CCCO1 (stereo not given) | 14µM* | ?
58 | CC(C)CC(c1nnnn1CCc1ccccc1)N1CCN(C(=O)c2ccco2)CC1 (stereo not given) | -15% | ?
59 | Cn1c(S(=O)(=O)c2ccc([N+](=O)[O-])cc2)nc(Br)c1Br | -6% | -23%
60 | COc1ccccc1N1CCN(C(=O)C2c3ccccc3Oc3ccccc32)CC1 | ? | /
61 | CCOC(=O)N1C(=O)[C@@](CC)(c2ccccc2)N1C(=O)OCC | ? | ?
62 | CC1CCN(C(=O)c2ccccc2SCC(=O)NCC2CCCCC2)CC1 | -16% | -14%
63 | O=C(CN1C(=O)CCc2cc(S(=O)(=O)N3CCOCC3)ccc21)NCc1ccc(Cl)cc1 | -6% | -8%
64 | CC(C)N(C(=O)COC(=O)c1cccc(N(C)C)c1)c1ccccc1 | -9% | -5%
65 | NC(=O)c1cc([N+](=O)[O-])c(Cl)cc1NCc1cccnc1 | -2% | -9%
66 | Cc1cnc(-n2ncc(C(=O)N(C)Cc3cccc4ncccc34)c2C(C)C)nc1-c1ccc(F)cc1 | -16% | i
67 | COC(c1ccccc1)c1nnc(CCC(=O)N(C)CCc2ccccc2)o1 (stereo not given) | -15% | -5%
68 | COC(=O)Cn1cnc2c(cnn2-c2ccc(OC)cc2)c1=O | 6% | i
69 | CC[C@@]1(c2ccccc2)C(=O)N(C(=O)OC)N1C(=O)OC | -24% | 0%
70 | CCOC(=O)C1=C(CN2CCOCC2)NC(=O)NC1c1cc(C)ccc1C (stereo not given) | -11% | -16%
71 | COc1cccc(/C=N/Nc2nc(Nc3ccc([N+](=O)[O-])cc3)nc(N3CCCC3)n2)c1O | -28% | 4µM*
72 | Cc1nc2ccccc2n1CSc1ccccc1 | -14% | -18%
73 | [O-][n+]1c2ccccc2c2n1CCN1CCOC21c1ccc(Cl)cc1 (stereo not given) | -20% | ?
74 | COc1cccc(-c2ccc3c(N)c(C(=O)NC4CC4)sc3n2)c1 | -22% | ?
75 | CCOc1ccccc1NC(=O)CCNC(=O)c1ccc(Cl)cc1 | -11% | -7%
76 | Cc1ccc(S(=O)(=O)N(Cc2cc3cc4c(cc3[nH]c2=O)OCCO4)CC2CCCO2)cc1 (stereo not given) | -4% | -15%
77 | Cc1ccc(S(=O)(=O)N[C@@H](C)C(=O)N2CCC(C(=O)N[C@@H](Cc3ccccc3)C(=O)O)CC2)cc1 | -2%[7.34 µM] | i[7.34 µM]
78 | Cc1nn(C)c2c1c(C(F)(F)F)cc(=O)n2C(C)C(=O)NCc1ccccc1 (stereo not given) | -7% | -11%
79 | Cc1ccc(S(=O)(=O)N2CCN(CC(=O)Nc3ccc4c(c3)CCC4)CC2)cc1C | -13% | -17%
80 | CC(=O)c1ccc(OCc2cc(=O)n3ccsc3n2)cc1 | -14% | -2%

Entries 70 to 71 from above:
No. | structure | VACV Venus inh | VACV mCherry inh
70 | CCOC(=O)C1=C(CN2CCOCC2)NC(=O)NC1c1cc(C)ccc1C (stereo not given) | -11% | -16%
71 | COc1cccc(/C=N/Nc2nc(Nc3ccc([N+](=O)[O-])cc3)nc(N3CCCC3)n2)c1O | -28% | 4µM*

(list continues)
No. | structure | VACV Venus inh | VACV mCherry inh
81 | CNc1nc(C(=O)O)nc(N2CCOCC2)n1 | -2% | -9%
82 | Cc1ccc(NC(=O)/C=C/c2cccc(C(F)(F)F)c2)cc1 | -5% | -15%
83 | CCc1cc2c(CN(C)Cc3ccccc3F)cc(=O)oc2cc1O | -17% | ?
84 | O=C(Cc1csc(NC(=O)Nc2cccc(Cl)c2)n1)NC1CCCC1 | -28% | -27%
85 | O=C(c1ccco1)N1CCN(Cc2cc(=O)c(OCc3ccccc3)co2)CC1 | -11% | -11%
86 | Cc1ccc(S(=O)(=O)Nc2ccccc2C(=O)NCC2CCCO2)cc1 (stereo not given) | -4% | -9%
87 | Cc1ccc2nc(-c3ccncc3)c(Nc3ccccc3C)n2c1 | -23% | -21%
88 | COc1ccc([C@H]2[C@H](C(=O)OC(C)(C)C)N3N=Cc4ccccc4C3C23C(=O)c2ccccc2C3=O)cc1OC (stereo not given in full) | 2% | -4%
89 | COCCNC(=O)C1CCCN(Cc2ccccc2)CC1 (stereo not given) | -17% | -20%
90 | CCOc1ccc(-n2c(SCc3ccccc3)nc3c([nH]c4ccccc43)c2=O)cc1 | -10% | -17%
91 | Cc1cc(=O)oc2cc(NC(=O)c3cccc(S(=O)(=O)N(C)C)c3)ccc12 | -6% | -1%
92 | CC(=O)N[C@H]1[C@H]([C@H](O)[C@H](O)CO)O[C@](O)(C(=O)O)C[C@@H]1O | -8% | -18%
93 | CC1(c2ccc3noc(-c4ccc(Cl)cc4)c3c2)OCCO1 | -11% | /
94 | CCCCc1nnc(NC(=O)CSc2nc(N)cc(=O)[nH]2)s1 | 7% | -5%
95 | CCOC(=O)[C@]12CCC=C1N(Cc1ccc(Cl)cc1Cl)C(=O)[C@H](CC(=O)NCc1cccs1)C2 | -17% | -19%
96 | COc1ccc(-c2[nH]ncc2CNCCc2ncccc2C)cc1F | -3% | -10%
97 | CN(c1ccccc1)S(=O)(=O)c1ccc(Cl)c(C(=O)Nc2ccc(N3CCOCC3)cc2)c1 | -15% | -13%
98 | CCOC(=O)C1(Cc2ccccc2)CCN(Cc2cccc3c2OCO3)CC1 | -10% | -13%
99 | CC1=CC(C)(C)NC(=S)N1c1ccc(C)cc1C | -21% | -24%
100 | Oc1ccc2c3c1O[C@H]1c4c(c5ccccc5n4Cc4ccccc4)C[C@@]4(O)C(C2)N(CC2CC2)CC[C@]314 | -22% | -8%
101 | Cc1ccc(S(=O)(=O)/N=C/N(C)C)cc1 | -7% | -1%
102 | O=C(N/N=C/c1cccc(Br)c1)C1CC(=O)N(c2ccccc2)C1 (stereo not given) | -21% | i
103 | COc1cc(S(=O)(=O)NC2CCCC2)ccc1-n1cnnn1 | -14% | -1%
104 | OCC1CCCN(Cc2ccc(-c3ccccc3)cc2)C1 (stereo not given) | -21% | -6%
105 | O=C(CN1C(=O)NC2(CCCc3ccccc32)C1=O)N1CCN(C(=O)c2ccco2)CC1 (stereo not given) | -14% | /
106 | O=C(O)CSCC(=O)NCc1csc2ccc(Cl)cc12 | -19% | -4%
107 | Cc1ccc(S(=O)(=O)CCC(=O)Nc2ccc(Br)cc2C)cc1 | -15% | -15%
108 | O=C(C[C@H]1C/C=C\CC[C@H](Cc2ccc(F)cc2)C(=O)OC[C@H]2CCCN2C1=O)NCCO | -23% | i
109 | COc1ccc(/C=N\NC(=O)COc2ccccc2Cl)cc1Cn1nc(C)cc1C | -10% | -15%

From PubChem BioAssay
